MLL AF4-AF9 inh – blocks AF4 peptide binding to human AF9; hit rate 0.47% among 350,000; AlphaScreen, biotin-AF4 peptide binding to FLAG-AF9; P42568; inhibition, % at 10 µM; AID 651704;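 active = every replicate reaching a set inhibition limit, whatever the replicate mean, cut at about 25% in these data; inconclusive = mean inhibition reaches that limit but some replicates miss it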;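 note: 0% = plate neutral control median and 100% = total signal loss; the record names both 10 and 1 µM as test concentration; the first replicate is given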
Target sequence (P42568 whole entry, looked up): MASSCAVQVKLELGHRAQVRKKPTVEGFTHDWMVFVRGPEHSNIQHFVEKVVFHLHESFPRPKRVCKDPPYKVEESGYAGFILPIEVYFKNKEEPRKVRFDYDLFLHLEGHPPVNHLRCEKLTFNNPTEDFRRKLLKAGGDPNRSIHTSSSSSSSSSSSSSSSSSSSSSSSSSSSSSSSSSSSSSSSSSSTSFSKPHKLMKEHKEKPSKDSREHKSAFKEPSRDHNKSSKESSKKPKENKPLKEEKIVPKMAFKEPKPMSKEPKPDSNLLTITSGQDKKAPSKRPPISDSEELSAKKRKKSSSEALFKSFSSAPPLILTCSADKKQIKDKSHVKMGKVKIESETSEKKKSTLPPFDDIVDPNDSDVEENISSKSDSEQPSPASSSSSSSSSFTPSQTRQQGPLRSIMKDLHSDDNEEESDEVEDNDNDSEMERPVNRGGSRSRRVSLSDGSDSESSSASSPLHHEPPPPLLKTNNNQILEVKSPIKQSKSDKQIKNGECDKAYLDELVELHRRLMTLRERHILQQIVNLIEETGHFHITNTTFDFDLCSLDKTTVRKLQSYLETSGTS
The depositor's hits bear a star; ? = inconclusive.

MLL AF4-AF9 inh	SMILES
-1.2	C[C@@H]1CN([C@@H](C)CO)C(=O)c2cccc(NS(=O)(=O)c3cccs3)c2O[C@H]1CN(C)C(=O)Nc1ccc(F)cc1
1.0	CNC(=O)C1(C)CCN1C(=O)Cc1ccc(C(C)C)cc1 (stereo not given)
-0.7	CC(C)NC(=O)N1[C@H](C#N)[C@H](c2ccc(C#CC3CCCC3)cc2)[C@@H]1CO
6.5	COc1cccc(NC(=O)Nc2ccc3c(c2)C(=O)N(C)C[C@@H](OC)[C@H](C)CN(CCC(F)(F)F)[C@H](C)CO3)c1
4.2	COc1ccc(C#Cc2cccc(-c3nc(C(=O)NCCCN4CCOCC4)cc4c3[C@H](CCO)N(S(=O)C(C)(C)C)C4)c2)cc1OC (stereo not given in full)
-1.7	CC(C)NC(=O)N(C)C[C@H]1Oc2c(NC(=O)Nc3ccc(F)cc3)cccc2C(=O)N([C@@H](C)CO)C[C@H]1C
-3.2	CCCNC(=O)N1C[C@H](C)[C@@H](OC)CN(C)C(=O)c2ccc(NC(=O)CCC)cc2OC[C@@H]1C
-2.7	Cc1ccc(-c2ccc3c(c2)O[C@@H](CN(C)Cc2ccncc2)[C@H](C)CN([C@@H](C)CO)S3(=O)=O)cc1
-1.2	C[C@H](CO)N1C[C@H](C)[C@@H](CN(C)C)Oc2ccc(NS(=O)(=O)c3cn(C)cn3)cc2C1=O
-1.0	COCCN(CCOC)Cc1cc(=O)oc2cc(C)cc(C)c12
3.0	Cc1noc(C)c1NC(=O)Nc1ccc2c(c1)C(=O)N(C)[C@@H]1CC[C@@H](CC(=O)N[C@@H]3CCN(Cc4ccccc4)C3)O[C@@H]1CO2
-3.0	CO[C@H]1CN(C)C(=O)c2ccc(NC(=O)c3cccc(F)c3)cc2OC[C@H](C)N(C)C[C@@H]1C
1.7	C[C@H](CO)N1C[C@H](C)[C@H](CN(C)Cc2ccc(-c3ccccc3)cc2)Oc2ncc(C#C[C@@H](C)O)cc2C1=O
0.2	C[C@@H]1CCCCO[C@H](CN(C)S(=O)(=O)c2ccc(Cl)cc2)[C@H](C)CN([C@H](C)CO)C(=O)c2cc(NC(=O)Cc3ccccc3)ccc2O1
3.0	COc1ccc(NC(=O)Nc2cccc3c2O[C@@H](CN(C)C(=O)Nc2ccc(OC)cc2)[C@H](C)CN([C@@H](C)CO)C3=O)cc1
7.0	COc1ccccc1C#Cc1ccc([C@H]2[C@@H](C#N)N(C(=O)C3CCCC3)[C@H]2CO)cc1
-1.0	O=C(N[C@H]1CC[C@@H](CCNC(=O)C2CCCCC2)O[C@@H]1CO)c1ccccn1
-1.3	CC(=O)N(C)C[C@H]1Oc2cc(-c3ccncc3)ccc2S(=O)(=O)N([C@H](C)CO)C[C@H]1C
8.8	C[C@@H]1CCCCO[C@@H](CN(C)C)[C@@H](C)CN([C@@H](C)CO)C(=O)c2cc(NS(C)(=O)=O)ccc2O1
-0.7	C[C@@H]1CN([C@H](C)CO)C(=O)c2cc(NC(=O)c3ccccc3)ccc2O[C@@H](C)CCCCO[C@H]1CN(C)C(=O)Nc1ccccc1
4.5	CCC(=O)N(C)C[C@H]1Oc2cc(C#CC3CCCC3)ccc2S(=O)(=O)N([C@H](C)CO)C[C@H]1C
-0.4	CCOC1=C2CN(S(=O)(=O)c3ccc(C)cc3)[C@H](c3ccccc3)C[C@@H]2N(S(=O)(=O)c2ccc(C)cc2)[C@H](c2cccc(C)c2)C1
-0.8	CN1CCN(C(=O)C[C@@H]2CC[C@@H](NS(=O)(=O)c3cccc(F)c3)[C@H](CO)O2)CC1
-1.7	O=C(C1CCC1)N1CC2(C1)[C@@H](c1ccccc1)[C@@H](CO)N2Cc1nccs1
-6.5	COCCN1C[C@@H](CO)O[C@@H](n2cnc3c(N(C)C(C)C)ncnc32)C1
1.1	COc1ccc2c3c([nH]c2c1)[C@H](CO)N(Cc1nccs1)CC31CCN(C(=O)C2CCCCC2)CC1
1.5	CC1=C(C(=O)N(C(C)C)C(C)C)CC(CC(=O)NC2CCCCC2)C(=O)N1Cc1ccc(C(C)(C)C)cc1 (stereo not given)
-2.1	CO[C@@H]1CN(C)C(=O)c2cc(NC(=O)c3cnccn3)ccc2OC[C@@H](C)N(CC2CC2)C[C@@H]1C
8.1	O=C(Nc1ccc(-c2ccccc2)cc1)[C@@H]1[C@@H](CO)[C@@H]2Cn3c(cccc3=O)[C@@H]2N1CC1CCCCC1
5.8	CN1CCN(c2ccc(CNC(=O)c3ccc(-c4ccnn4C)c4ccoc34)cc2)CC1
-2.1	O=C(C[C@H]1C[C@H]2c3cc(NC(=O)c4cccnc4)ccc3O[C@H]2[C@@H](CO)O1)NCc1ccccn1
-3.5	C[C@H]1CCCCO[C@@H](CN(C)S(=O)(=O)c2ccc(F)cc2)[C@@H](C)CN([C@@H](C)CO)C(=O)c2cc(NS(=O)(=O)c3cn(C)cn3)ccc2O1
5.8	COc1ccc2c3c([nH]c2c1)[C@H](CO)N(C(=O)c1cccnc1)CC31CN(C(=O)Nc2cccc(F)c2)C1
1.7	C[C@H]1CN([C@@H](C)CO)C(=O)c2cccc(NC(=O)Nc3ccc4c(c3)OCO4)c2O[C@H]1CN(C)S(=O)(=O)c1cccs1
-1.1	C[C@@H]1CCCCO[C@@H](CN(C)C)[C@H](C)CN([C@@H](C)CO)C(=O)c2cc(NS(=O)(=O)c3cccs3)ccc2O1
-2.1	O=C(C[C@H]1C=C[C@H](NC(=O)Nc2cc(F)ccc2F)[C@H](CO)O1)Nc1ccc(-c2ccccc2)cc1
8.9	CCc1nc(N2[C@H](C#N)[C@@H](c3ccccc3-c3ccc(F)cc3)[C@H]2CO)sc1C
-0.9	Cc1noc(C)c1NC(=O)N(C)C[C@@H]1Oc2ccc(NC(=O)Nc3cccc4ccccc34)cc2CC(=O)N([C@@H](C)CO)C[C@H]1C
?	C[C@H](CO)N1C[C@H](C)[C@@H](CN(C)Cc2ccc(Oc3ccccc3)cc2)Oc2ccc(NC(=O)CCCN(C)C)cc2CC1=O
-9.9	CO[C@@H](CN(C)C(=O)c1ccc2c(c1)OCO2)[C@H](C)CN([C@H](C)CO)S(=O)(=O)c1ccc(C)cc1
-0.4	O=C(OCc1ccccc1)N1CCN(C(c2ccnc3ccccc23)c2nnnn2-c2ccc3c(c2)OCCO3)CC1 (stereo not given)
-1.5	O=C(C[C@@H]1CC[C@H]2[C@@H](COC[C@H](O)CN2C(=O)Nc2ccccc2)O1)NCc1ccncn1
2.1	COc1ccc(CN(C)C[C@@H]2Oc3ccc(NC(=O)NC4CCCCC4)cc3CC(=O)N([C@H](C)CO)C[C@@H]2C)cc1
-1.7	CN(C)CC(=O)N1[C@@H](CO)[C@H](c2ccccc2)C12CN(C(=O)c1cccc(F)c1)C2
0.4	COc1ccc(CN(C)C[C@@H]2Oc3c(NS(=O)(=O)c4ccc(OC)cc4)cccc3C(=O)N([C@H](C)CO)C[C@@H]2C)cc1
0.2	COc1ccc2c3c([nH]c2c1)[C@@H](CO)N(C(=O)CN1CCOCC1)CC31CCN(C(=O)NC(C)C)CC1
-0.3	O=C(C[C@@H]1C=C[C@@H](NC(=O)C2CCC2)[C@H](CO)O1)Nc1nccs1
-3.9	CCCc1cn(CC[C@H]2CC[C@@H](NC(=O)C3CCC3)[C@H](CO)O2)nn1
7.2	Cc1ccc(S(=O)(=O)N(C)C[C@H]2Oc3ccc(NC(=O)Nc4ccc5c(c4)OCO5)cc3CC(=O)N([C@@H](C)CO)C[C@H]2C)cc1
-2.4	CO[C@H]1CN(C)C(=O)c2ccc(NC(=O)c3ccc4c(c3)OCO4)cc2OC[C@@H](C)NC[C@@H]1C

Two of the compounds above, in markdown.
| mol | MLL AF4-AF9 inh |
| --- | --- |
| CC(=O)N(C)C[C@H]1Oc2cc(-c3ccncc3)ccc2S(=O)(=O)N([C@H](C)CO)C[C@H]1C | -1.3 |
| O=C(C[C@@H]1CC[C@H]2[C@@H](COC[C@H](O)CN2C(=O)Nc2ccccc2)O1)NCc1ccncn1 | -1.5 |

Further results follow.
MLL AF4-AF9 inh	SMILES
2.3	CN(CC(=O)Nc1cccc(F)c1)C(=O)c1cccc(S(=O)(=O)N2CCN(c3ccc(F)cc3)CC2)c1
4.7	C[C@H](CO)N1C[C@H](C)[C@H](CN(C)C(=O)CCCN(C)C)OCCCC[C@H](C)Oc2ccc(NS(=O)(=O)c3ccc(Cl)cc3)cc2C1=O
2.9	CC(C)CC#Cc1ccc2c(c1)O[C@H](CN(C)C(=O)c1ccccn1)[C@H](C)CN([C@@H](C)CO)S2(=O)=O
-0.3	COc1ccc(S(=O)(=O)Nc2ccc3c(c2)C(=O)N([C@H](C)CO)C[C@H](C)[C@H](CN(C)Cc2ccncc2)O3)cc1
-1.8	C[C@H](CO)N1C[C@H](C)[C@H](CN(C)S(C)(=O)=O)Oc2ncc(C#CC(C)(C)O)cc2C1=O
2.5	C[C@@H]1CCCCO[C@H](CN(C)CC2CC2)[C@@H](C)CN([C@H](C)CO)C(=O)c2cc(NS(=O)(=O)c3ccc(Cl)cc3)ccc2O1
3.6	C/C=C/c1ccc([C@H]2[C@@H](CO)N(C(=O)C3CC3)[C@H]2CNC(=O)NC(C)C)cc1
0.3	O=S(=O)(NCC[C@H]1CC[C@H](NS(=O)(=O)c2ccccc2Cl)[C@@H](CO)O1)c1ccc(F)cc1
1.0	CCNC(=O)C[C@@H]1CC[C@H]2[C@H](COc3ccc(NC(=O)Nc4ccc(Cl)cc4)cc3C(=O)N2C)O1
-4.0	CC(=O)NCCNC(=O)C1(C)Cc2c(-c3cccc(C(N)=O)c3)ccnc2O1 (stereo not given)

An excerpt from further up, as a working copy:
MLL AF4-AF9 inh	SMILES
2.3	CN(CC(=O)Nc1cccc(F)c1)C(=O)c1cccc(S(=O)(=O)N2CCN(c3ccc(F)cc3)CC2)c1
4.7	C[C@H](CO)N1C[C@H](C)[C@H](CN(C)C(=O)CCCN(C)C)OCCCC[C@H](C)Oc2ccc(NS(=O)(=O)c3ccc(Cl)cc3)cc2C1=O
2.9	CC(C)CC#Cc1ccc2c(c1)O[C@H](CN(C)C(=O)c1ccccn1)[C@H](C)CN([C@@H](C)CO)S2(=O)=O
-0.3	COc1ccc(S(=O)(=O)Nc2ccc3c(c2)C(=O)N([C@H](C)CO)C[C@H](C)[C@H](CN(C)Cc2ccncc2)O3)cc1
-1.8	C[C@H](CO)N1C[C@H](C)[C@H](CN(C)S(C)(=O)=O)Oc2ncc(C#CC(C)(C)O)cc2C1=O
2.5	C[C@@H]1CCCCO[C@H](CN(C)CC2CC2)[C@@H](C)CN([C@H](C)CO)C(=O)c2cc(NS(=O)(=O)c3ccc(Cl)cc3)ccc2O1
3.6	C/C=C/c1ccc([C@H]2[C@@H](CO)N(C(=O)C3CC3)[C@H]2CNC(=O)NC(C)C)cc1
0.3	O=S(=O)(NCC[C@H]1CC[C@H](NS(=O)(=O)c2ccccc2Cl)[C@@H](CO)O1)c1ccc(F)cc1
1.0	CCNC(=O)C[C@@H]1CC[C@H]2[C@H](COc3ccc(NC(=O)Nc4ccc(Cl)cc4)cc3C(=O)N2C)O1
-4.0	CC(=O)NCCNC(=O)C1(C)Cc2c(-c3cccc(C(N)=O)c3)ccnc2O1 (stereo not given)

(continued)
MLL AF4-AF9 inh	SMILES
4.4	C[C@H]1CCCCO[C@H](CN(C)Cc2ccc(C(F)(F)F)cc2)[C@@H](C)CN([C@@H](C)CO)C(=O)c2cc(NC(=O)CCC(F)(F)F)ccc2O1
-14	CCCNC(=O)N1CCC2(CC1)CN(C(=O)CC)[C@H](CO)c1c2c2ccc(OC)cc2n1C
-1.9	COc1cc(F)ccc1-c1cc(C(=O)NCc2cccs2)[nH]n1
-2.7	CO[C@H]1CN(C)C(=O)c2cc(C#N)ccc2OC[C@H]2O[C@H](CC[C@@H]2OC)CCN(C)C(=O)[C@H]1C
0.6	O=C(c1ccccc1F)N1C[C@H]2[C@@H](c3ccccc31)[C@@H](CO)N2C(=O)c1ccncc1
-3.2	CC(C)NC(=O)N(C)C[C@H]1Oc2ccc(NC(=O)CCC(F)(F)F)cc2CC(=O)N([C@H](C)CO)C[C@@H]1C
-0.4	CCCNC(=O)C1(C)CCCN(Cc2cccc(Oc3ccccc3)c2)C1 (stereo not given)
-1.6	N#C[C@@H]1[C@H](c2ccc(-c3ccccc3F)cc2)[C@@H](CO)N1C(=O)C1CCC1
1.2	C[C@H]1CN([C@@H](C)CO)C(=O)c2cc(NC(=O)C3CCCCC3)ccc2O[C@H]1CN(C)S(=O)(=O)c1cn(C)cn1
-1.6	C[C@@H]1CN([C@H](C)CO)C(=O)c2cc(NC(=O)C3CCCCC3)ccc2O[C@@H](C)CCCCO[C@@H]1CN(C)C(=O)CCCN(C)C
-24	Cc1ccccc1S(=O)(=O)N1C[C@@H](O)COC[C@@H]2O[C@H](CC(=O)O)CC[C@H]21
-0.4	COc1ccccc1-c1ccc([C@H]2[C@@H](C#N)N(C(=O)C3CC3)[C@@H]2CO)cc1
1.1	O=C(O)C1CCCN1C(=O)c1cccc(Cl)c1 (stereo not given)
1.9	COc1cccc(NC(=O)N(C)C[C@H]2Oc3cc(C#Cc4ccncc4)ccc3S(=O)(=O)N([C@@H](C)CO)C[C@H]2C)c1
-1.8	CCC(=O)Nc1ccc2c(c1)C(=O)N(C)C[C@H](OC)[C@@H](C)CN[C@H](C)CO2
-0.4	CC(C)NC(=O)N1[C@H](CN(C)C(=O)c2cccnc2)[C@@H](c2ccccc2)[C@@H]1CO
0.8	CCNC(=O)C[C@H]1CC[C@H](NC(=O)C2CCOCC2)[C@H](CO)O1
-3.9	C[C@@H]1CN([C@H](C)CO)C(=O)c2cc(C#C[C@@H](C)O)cnc2O[C@H]1CN(C)C(=O)CN(C)C
-3.3	CNC[C@@H]1OCCCC[C@@H](C)Oc2ccc(NC(=O)Nc3c(C)noc3C)cc2C(=O)N([C@@H](C)CO)C[C@H]1C
-1.8	C[C@@H]1CN([C@H](C)CO)C(=O)c2cc(NC(=O)C3CCCCC3)ccc2O[C@@H](C)CCCCO[C@@H]1CN(C)S(=O)(=O)c1ccc(F)cc1
-14	C[C@@H]1CN([C@H](C)CO)C(=O)c2cc(NS(=O)(=O)c3cn(C)cn3)ccc2O[C@@H]1CN(C)S(=O)(=O)c1ccccc1
3.5	Cc1ccc(S(=O)(=O)N(C)C[C@H]2Oc3ccc(NC(=O)Nc4ccccc4)cc3C(=O)N([C@@H](C)CO)C[C@H]2C)cc1
-2.6	O=C(C1CCOCC1)N1CC[C@@H]2[C@H]1c1cc(Br)ccc1N[C@@H]2CO

Screening results from PubChem.

This is a subset. The share of hits here may be higher or lower than overall.
